Screens: PubChem, several laboratories
Beta cell apopt – inhibitors of cytokine-induced beta cell apoptosis, primary screen, luminescence. actives 0.8% (n = 300,000). protection from apoptosis, % (concentration not given with the values). INS-1E cytokine-induced death, ATP luminescence, 48 h; percent of positive-control rescue, neutral wells zero;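 active = all replicates at 75% or more, or half of them and the mean; inconclusive = half reach 75% but not the mean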;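 note: 0% = cytokine-treated negative control wells and 100% = positive control rescue; higher means more ATP so stronger rescue from cytokine killing; wells of about 40 µL received 100 nL stock; the first replicate is given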
MLL AF4-AF9 inh – inhibitors of AF4 peptide binding to AF9, primary screen, biochemical, AlphaScreen, biotin-AF4 peptide, FLAG-AF9, single point; inhibition, % at 10 µM; actives 0.47% (n = 350,000); Protein AF-9 (Homo sapiens), P42568;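 active = every replicate reaching a set inhibition limit, whatever the replicate mean, cut at about 25% in these data; inconclusive = mean inhibition reaches that limit but some replicates miss it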;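 note: 0% = plate neutral control median and 100% = total signal loss; the record names both 10 and 1 µM as test concentration; the first replicate is given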
Target sequence (P42568 whole entry, looked up): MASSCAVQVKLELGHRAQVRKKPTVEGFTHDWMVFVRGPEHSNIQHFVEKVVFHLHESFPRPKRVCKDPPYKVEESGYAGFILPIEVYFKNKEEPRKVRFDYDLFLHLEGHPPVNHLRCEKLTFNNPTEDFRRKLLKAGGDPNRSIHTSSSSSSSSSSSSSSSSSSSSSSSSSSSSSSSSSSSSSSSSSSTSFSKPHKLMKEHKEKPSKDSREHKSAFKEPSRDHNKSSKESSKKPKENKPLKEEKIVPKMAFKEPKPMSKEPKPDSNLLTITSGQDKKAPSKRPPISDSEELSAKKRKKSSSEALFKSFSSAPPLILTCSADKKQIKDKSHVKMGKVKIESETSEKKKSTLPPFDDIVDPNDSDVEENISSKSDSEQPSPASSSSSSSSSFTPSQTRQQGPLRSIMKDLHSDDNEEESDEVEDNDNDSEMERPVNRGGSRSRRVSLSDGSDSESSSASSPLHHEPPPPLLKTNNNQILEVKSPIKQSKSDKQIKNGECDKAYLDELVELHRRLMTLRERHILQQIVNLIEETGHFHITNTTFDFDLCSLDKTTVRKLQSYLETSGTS
LANA-H2B inh – blockers of LANA interaction with H2A/H2B – biochemical, FP readout, HTS, primary screen; Protein LANA1 (Human herpesvirus 8 type P (isolate GK18)), Q9QR71; actives 0.6% (n = 320,000); AID 2629, 2010; inhibition, % (test concentration not listed); cell-free LANA-H2A/H2B peptide, fluorescence polarization; in the data active = inhibition mostly above about 10%, no sharp cut-off; inactive = mostly below about 6.7%;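 note: stock transfer was 7.5 nL into about 10 µL; 0% = median of vehicle wells and 100% = median of positive control wells; one replicate is shown; the record names a cut of 25% in any replicate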
A1 inh – caspase 3/7 activation in MEF A1-2A-BIM cells, primary screen, A1 inhibitor project, cell-based, luminescence, HTS; Caspase-Glo 3/7 luminescence, 3 h; percent of clofoctol response, vehicle zero; caspase activation, % (test concentration not listed); actives 0.066% (n = 330,000); AID 2462, 2010;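 active = over half of replicate activation scores above 10%, or exactly half above 10 with the replicate mean above 10; inconclusive = replicate mean below 10 yet half the replicates above 10; inactive = over half of replicates below 10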;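 note: wells of about 30 µL received 50 nL stock; many hits fall short of the cut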
Vif A3G – inhibitors of Vif binding to APOBEC3G peptide, primary screen, biochemical, TR-FRET, GST-Vif 1-94, biotin-A3G peptide, dose response retest (AID 1117319) | actives 0.57% (n = 260,000) | one-dose inhibition, %; IC50 in µM for titrated hits | Virion infectivity factor (Human immunodeficiency virus type 1 group M subtype B (isolate … | TR-FRET GST-Vif / biotin-A3G peptide binding; higher % means a stronger effect; test concentration not given here; strong numbers were not always called active;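 active = above the screen mean plus three standard deviations and confirmed in dose response; inconclusive = results disagree or hit not tested in dose response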;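 note: Vif residues 1-94 fused to GST binding biotinylated APOBEC3G peptide 110-148; 0% = full assay without inhibitor and 100% = GST in place of GST-Vif; retest series ran down from 100 µM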
Calb FLC – C. albicans growth inhibition with fluconazole, primary screen, CaCi-2 strain, Alamar Blue fluorescence | C. albicans CaCi-2 (fluconazole-resistant clinical isolate) + fluconazole, 48 h | growth inhibition, % (concentration not given with the values) | actives 0.57% (n = 300,000) | AID 1979, 2009;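 active = most replicates above 75%; inconclusive = exactly half above 75%; inactive = most below 75%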;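 note: all wells also contain fluconazole at 8 µg/ml as a sub-toxic cotreatment; 0% = median of DMSO wells and 100% = median of geldanamycin control wells; wells of about 8 µL received 7.5 nL stock; the first replicate is given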
RanGTP-Imp inh – inhibitors of RanGTP-importin-beta interaction, primary screen, biochemical, FRET, CFP-Ran, YFP-importin-beta, homogeneous | cell-free CFP-Ran/YFP-importin-beta FRET ratio | inhibition, % (no concentration beside the values) | actives 1.1% (n = 300,000) | AID 2216, 2009;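 active = most replicates above 15%; inconclusive = exactly half above 15%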;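 note: 0% = DMSO wells and 100% = Ran loaded with GDP instead of GTP; wells of about 40 µL received 100 nL stock; the first replicate is given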
T cruzi repl – inhibitors of intracellular T. cruzi growth, primary screen, luminescence, NIH3T3 host cells; actives 1.4% (n = 300,000); T. cruzi beta-gal in NIH3T3, 90 h; inhibition, % (no concentration beside the values); AID 1885, 2009;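 active = mean inhibition across valid replicates above about 55%, limit read from the data; inconclusive = mean below that limit but half or more replicates reach it; inactive = mean below it, under half of replicates reach it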;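 note: signal also drops with host cell toxicity which is not excluded here; 0% = plate median of DMSO wells and 100% = zero luminescence signal; higher percent means less beta-gal luminescence so fewer parasites; stock transfer was 50 nL into about 50 µL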
Numbers without * were called inactive. Random draw from the library, and some 4.3% of all compounds hit somewhere here.

Sample of the layout, 2 compounds:
For CN(C)CCCNc1ncnc2c1cnn2-c1ccccc1 the results were Beta cell apopt -2, MLL AF4-AF9 inh -2.5, LANA-H2B inh 14*, A1 inh -0.7, Vif A3G 12%, Calb FLC -7, RanGTP-Imp inh -3.2 and T cruzi repl 39.
Screening O=C(CSc1nnc(-c2ccco2)n1Cc1ccccc1)NCc1ccccc1 returned Beta cell apopt -1, LANA-H2B inh -5.6, A1 inh 0.4, Vif A3G 22%, Calb FLC 2, RanGTP-Imp inh -1.9 and T cruzi repl -7.

All compounds of this part (from the top)
For CN(C)CCCNc1ncnc2c1cnn2-c1ccccc1 the results were Beta cell apopt -2, MLL AF4-AF9 inh -2.5, LANA-H2B inh 14*, A1 inh -0.7, Vif A3G 12%, Calb FLC -7, RanGTP-Imp inh -3.2 and T cruzi repl 39.
Screening O=C(CSc1nnc(-c2ccco2)n1Cc1ccccc1)NCc1ccccc1 returned Beta cell apopt -1, LANA-H2B inh -5.6, A1 inh 0.4, Vif A3G 22%, Calb FLC 2, RanGTP-Imp inh -1.9 and T cruzi repl -7.
Screening CC(=O)c1cccc(NC(=S)NC(=O)c2ccc(Cl)cc2)c1 returned Beta cell apopt -1, MLL AF4-AF9 inh 5.4, LANA-H2B inh 1.9, A1 inh 0.1, Vif A3G -4%, Calb FLC 42, RanGTP-Imp inh inconclusive and T cruzi repl -20.
Screening NC(N)=Nc1nc(-c2ccccc2)c2cc(Cl)ccc2n1 returned MLL AF4-AF9 inh 16, LANA-H2B inh -2.0, A1 inh 0.2, Vif A3G -8%, Calb FLC -27, RanGTP-Imp inh 4.4 and T cruzi repl 65*.
O=S(=O)(CCN1CCOCC1)c1ccc(OC(F)(F)F)cc1 was read as Beta cell apopt 1, MLL AF4-AF9 inh 0.6, LANA-H2B inh -6.3, A1 inh -0.2, Vif A3G -3%, Calb FLC -4, RanGTP-Imp inh 1.9 and T cruzi repl -9.
Screening O=c1c2ccccc2nnn1CSc1nc2cc(Cl)ccc2c(=O)n1Cc1ccco1 returned Beta cell apopt -5, LANA-H2B inh -2.2, A1 inh 0.9, Calb FLC -20, RanGTP-Imp inh -11 and T cruzi repl 15.
`CCOc1ccccc1C1CC(=O)Nc2cc(OC)c(OC)cc21` (stereo not drawn) gave Beta cell apopt -3, MLL AF4-AF9 inh -2.5, LANA-H2B inh 2.1, A1 inh -1.0, Calb FLC -2, RanGTP-Imp inh 4.1 and T cruzi repl -4.
O=C(N/N=C/c1ccc([N+](=O)[O-])o1)c1sc2ccccc2c1Cl was read as Beta cell apopt -34, MLL AF4-AF9 inh -0.9, LANA-H2B inh 4.3, A1 inh 0.5, Vif A3G 22%, Calb FLC -8, RanGTP-Imp inh 1.4 and T cruzi repl 48.
Screening CCC1CN(C(=O)N2CCC(C(=O)NCc3ccc(C)o3)CC2)c2ccccc2O1 (stereo not drawn) returned Beta cell apopt -8, MLL AF4-AF9 inh -5.8, LANA-H2B inh 2.8, A1 inh 1.3, Calb FLC inconclusive, RanGTP-Imp inh 1.3 and T cruzi repl -10.
For COc1ccc(/C=C(\C#N)C(=O)NCc2cccnc2)cc1OC the results were Beta cell apopt -2, MLL AF4-AF9 inh -3.3, LANA-H2B inh -0.5, A1 inh 0.3, Vif A3G -6%, Calb FLC -2, RanGTP-Imp inh -0.5 and T cruzi repl -3.
`O=C(Nc1ccccc1F)c1ccc(S(=O)(=O)NCC2CCCO2)cc1` (stereo not drawn) gave Beta cell apopt 0, LANA-H2B inh -0.8, A1 inh -0.5, Vif A3G 75%, Calb FLC 2, RanGTP-Imp inh 3.1 and T cruzi repl -29.
Screening CC(=O)c1ccc(OCc2cc(C(=O)NCCN3CCCC(O)C3)no2)cc1 (stereo not drawn) returned Beta cell apopt -2, MLL AF4-AF9 inh -0.6, LANA-H2B inh 1.9, A1 inh 0.5, Calb FLC 3, RanGTP-Imp inh 3.0 and T cruzi repl 9.
For O=C1CC(c2ccccc2)CC(O)=C1C=NCc1ccc(Cl)cc1 (stereo not drawn) the results were Beta cell apopt -2, LANA-H2B inh 2.0, A1 inh 1.4, Vif A3G 1%, Calb FLC 9, RanGTP-Imp inh 1.4 and T cruzi repl -10.
For O=C(N/N=C/c1c(O)ccc2ccccc12)c1ccc[n+](CCO)c1 the results were Beta cell apopt 11, MLL AF4-AF9 inh 82*, LANA-H2B inh -5.9, A1 inh 0.0, Vif A3G 6%, Calb FLC -4, RanGTP-Imp inh 4.3 and T cruzi repl 9.
For Cc1nc2ccc(NC(=O)c3cccc(S(=O)(=O)N(C)c4ccccc4)c3)cc2s1 the results were Beta cell apopt 8, LANA-H2B inh -1.1, A1 inh 1.1, Calb FLC -4, RanGTP-Imp inh 6.0 and T cruzi repl -2.
Screening COc1ccc(/C=N\NC(=O)c2cccc(F)c2)cc1COc1ccccc1 returned Beta cell apopt 0, MLL AF4-AF9 inh -2.0, LANA-H2B inh 7.7, A1 inh 1.5, Calb FLC 0, RanGTP-Imp inh 1.9 and T cruzi repl 12.
CC(C)N1C(=O)/C(=C\c2nc3ccccc3c(=O)n2-c2ccccc2)c2ccccc21 was read as Beta cell apopt 4, LANA-H2B inh -78, A1 inh 0.0, Calb FLC -5, RanGTP-Imp inh 2.1 and T cruzi repl 71*.
Cc1ccc2nsnc2c1S(=O)(=O)Nc1cccc2nsnc12 was read as Beta cell apopt -3, LANA-H2B inh 3.2, A1 inh -2.5, Vif A3G 10%, Calb FLC inconclusive, RanGTP-Imp inh -0.7 and T cruzi repl -10.
Screening CCCCCOc1ccc(NC2=CC(=O)CCC2)cc1 returned Beta cell apopt 11, MLL AF4-AF9 inh 9.3, LANA-H2B inh -0.3, A1 inh 1.5, Vif A3G -3%, Calb FLC -15, RanGTP-Imp inh inconclusive and T cruzi repl 8.
For O=C(NCCc1c[nH]c2ccccc12)c1ccc(Cl)cc1 the results were Beta cell apopt 7, MLL AF4-AF9 inh 4.4, LANA-H2B inh 1.7, A1 inh -1.9, Vif A3G 0%, Calb FLC 1, RanGTP-Imp inh -0.7 and T cruzi repl 1.
`CC(C)C(C(=O)N1CCN(Cc2ccccc2)CC1)c1ccccc1` (stereo not drawn) gave MLL AF4-AF9 inh -4.3, LANA-H2B inh 4.0, A1 inh 0.3, Vif A3G 4%, Calb FLC 2, RanGTP-Imp inh -1.2 and T cruzi repl -5.
COc1ccc(NC(=O)COC(=O)C2CCCCC2)c([N+](=O)[O-])c1 was read as Beta cell apopt -1, LANA-H2B inh 3.6, A1 inh -0.2, Calb FLC 3, RanGTP-Imp inh 0.4 and T cruzi repl -8.
Cc1ccnc(NS(=O)(=O)c2ccccc2)n1 was read as MLL AF4-AF9 inh -13, LANA-H2B inh -6.5, A1 inh 0.2, Vif A3G -1%, Calb FLC -4, RanGTP-Imp inh inconclusive and T cruzi repl -22.
Screening COCC(=O)Nc1ccc2nc3n(c(=O)c2c1)CCCCC3 returned Beta cell apopt -2, MLL AF4-AF9 inh -10, LANA-H2B inh -3.3, A1 inh 0.0, Vif A3G 5%, Calb FLC 0, RanGTP-Imp inh 9.1 and T cruzi repl 15.
For CCOc1ccc(N2CC(C(=O)N3CCCC3)CC2=O)cc1 (stereo not drawn) the results were Beta cell apopt -1, MLL AF4-AF9 inh 6.9, LANA-H2B inh 4.4, A1 inh -0.1, Calb FLC -5, RanGTP-Imp inh -1.4 and T cruzi repl -10.
For CCn1cc(Br)c(C(=O)N2CCN(c3ccccc3)CC2)n1 the results were LANA-H2B inh -4.7, A1 inh 0.8, Vif A3G 4%, Calb FLC -28, RanGTP-Imp inh inconclusive and T cruzi repl -14.
Cc1ccccc1NC(=O)CCc1nnc2ccc(N3CCC4(CC3)OCCO4)nn12 was read as Beta cell apopt 0, MLL AF4-AF9 inh 1.3, LANA-H2B inh 1.9, A1 inh -0.1, Vif A3G -10%, Calb FLC 12, RanGTP-Imp inh 2.6 and T cruzi repl -26.
Screening Cc1cccc(NC(=S)NNc2ncc(C(F)(F)F)cc2Cl)c1 returned Beta cell apopt 10, LANA-H2B inh -4.1, A1 inh 1.2, Vif A3G 2%, Calb FLC inconclusive, RanGTP-Imp inh -1.5 and T cruzi repl -14.
`COc1ccc(-c2nn(-c3ccccc3)cc2/C=N/Nc2ccc(S(N)(=O)=O)cc2[N+](=O)[O-])cc1OC` gave MLL AF4-AF9 inh 1.0, LANA-H2B inh 2.8, A1 inh 0.4, Calb FLC -8, RanGTP-Imp inh -2.1 and T cruzi repl 37.
Screening COc1ccc2c(c1)O[C@@H](c1cccc(C(F)(F)F)c1)[C@H](OC(=O)NCCc1ccc(OC)c(OC)c1)C2=O returned Beta cell apopt -10, LANA-H2B inh 1.6, A1 inh -1.2, Vif A3G 17%, Calb FLC -2, RanGTP-Imp inh 3.3 and T cruzi repl 31.
`O=c1nccc(NCc2ccco2)[nH]1` gave Beta cell apopt -2, LANA-H2B inh -4.2, A1 inh 0.6, Vif A3G 22%, Calb FLC 10, RanGTP-Imp inh 6.8 and T cruzi repl 3.
For CN(c1ccccc1)S(=O)(=O)c1ccc(NC(=S)NC(=O)c2ccccc2)cc1 the results were Beta cell apopt -4, LANA-H2B inh 5.5, A1 inh -0.4, Vif A3G 24%, Calb FLC 8, RanGTP-Imp inh 0.3 and T cruzi repl 8.
Cc1nc2ncnn2c(C)c1CCC(=O)N1CCCCC1 was read as Beta cell apopt -2, LANA-H2B inh 2.4, A1 inh 1.9, Vif A3G -6%, Calb FLC 1, RanGTP-Imp inh -2.2 and T cruzi repl -11.
Screening CC1CCN(C(=O)Cn2c(=O)c3cccn3c3ccccc32)CC1 returned Beta cell apopt -6, MLL AF4-AF9 inh 2.4, LANA-H2B inh 1.7, A1 inh 0.4, Calb FLC 9, RanGTP-Imp inh -0.9 and T cruzi repl -6.
For O=C(COc1ncnc2scc(-c3ccc(Cl)cc3)c12)NCc1ccco1 the results were Beta cell apopt 3, LANA-H2B inh 0.1, A1 inh -0.4, Vif A3G 1%, Calb FLC 7, RanGTP-Imp inh -2.9 and T cruzi repl 10.
Cc1ccc(S(=O)(=O)N2CCCCC2)cc1NC(=O)COc1ccccc1 was read as Beta cell apopt 3, MLL AF4-AF9 inh -1.2, LANA-H2B inh 1.2, A1 inh 1.4 and Vif A3G 2%.
For O=C(CCc1c[nH]c2ccccc12)NCCc1ccc(Cl)cc1 the results were Beta cell apopt 5, MLL AF4-AF9 inh 3.3, LANA-H2B inh -3.5, A1 inh 1.0, Calb FLC 4, RanGTP-Imp inh 4.0 and T cruzi repl 6.
Cc1ccc(-n2nc(C)c3c(C)c(CCC(=O)NCc4ccccc4)c(C)nc32)cc1 was read as MLL AF4-AF9 inh -3.1, LANA-H2B inh 0.6, A1 inh 0.5, Vif A3G -2%, Calb FLC -2, RanGTP-Imp inh -2.7 and T cruzi repl 24.
